Bfl-1 A1 inh – caspase 3/7 activation in MEF A1-2A-BIM cells, primary screen, A1 inhibitor project, cell-based, luminescence, HTS; Caspase-Glo 3/7 luminescence, 3 h; percent of clofoctol response, vehicle zero; caspase activation, % (concentration not given with the values); actives 0.066% (n = 330,000); AID 2462, 2010;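 active = over half of replicate activation scores above 10%, or exactly half above 10 with the replicate mean above 10; inconclusive = replicate mean below 10 yet half the replicates above 10; inactive = over half of replicates below 10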;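 also: wells of about 30 µL received 50 nL stock; many hits fall short of the cut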
Beta apoptosis – inhibitors of cytokine-induced beta cell apoptosis, primary screen, luminescence | INS-1E cytokine-induced death, ATP luminescence, 48 h; percent of positive-control rescue, neutral wells zero | protection from apoptosis, % (concentration not given with the values) | actives 0.8% (n = 300,000);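 active = all replicates at 75% or more, or half of them and the mean; inconclusive = half reach 75% but not the mean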;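 also: 0% = cytokine-treated negative control wells and 100% = positive control rescue; higher means more ATP so stronger rescue from cytokine killing; wells of about 40 µL received 100 nL stock; the first replicate is given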
AF4-AF9 inh – inhibitors of AF4 peptide binding to AF9, primary screen, biochemical, AlphaScreen, biotin-AF4 peptide, FLAG-AF9, single point. inhibition, % at 10 µM. Protein AF-9 (Homo sapiens), P42568. actives 0.47% (n = 350,000). AID 651704, 2012;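 active = every replicate reaching a set inhibition limit, whatever the replicate mean, cut at about 25% in these data; inconclusive = mean inhibition reaches that limit but some replicates miss it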;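 also: 0% = plate neutral control median and 100% = total signal loss; the record names both 10 and 1 µM as test concentration; the first replicate is given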
T cruzi inh – inhibitors of intracellular T. cruzi growth, primary screen, luminescence, NIH3T3 host cells. T. cruzi beta-gal in NIH3T3, 90 h. inhibition, % (concentration not given with the values). actives 1.4% (n = 300,000). AID 1885, 2009;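 active = mean inhibition across valid replicates above about 55%, limit read from the data; inconclusive = mean below that limit but half or more replicates reach it; inactive = mean below it, under half of replicates reach it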;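 also: signal also drops with host cell toxicity which is not excluded here; 0% = plate median of DMSO wells and 100% = zero luminescence signal; higher percent means less beta-gal luminescence so fewer parasites; stock transfer was 50 nL into about 50 µL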
LANA-H2A inh – blockers of LANA interaction with H2A/H2B – biochemical, FP readout, HTS, primary screen; Protein LANA1 (Human herpesvirus 8 type P (isolate GK18)), Q9QR71; cell-free LANA-H2A/H2B peptide, fluorescence polarization; inhibition, % (concentration not given with the values); actives 0.6% (n = 320,000); AID 2629, 2010; in the data active = inhibition mostly above about 10%, no sharp cut-off; inactive = mostly below about 6.7%;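 also: stock transfer was 7.5 nL into about 10 µL; 0% = median of vehicle wells and 100% = median of positive control wells; one replicate is shown; the record names a cut of 25% in any replicate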
Target sequence (Q9QR71 whole entry, looked up): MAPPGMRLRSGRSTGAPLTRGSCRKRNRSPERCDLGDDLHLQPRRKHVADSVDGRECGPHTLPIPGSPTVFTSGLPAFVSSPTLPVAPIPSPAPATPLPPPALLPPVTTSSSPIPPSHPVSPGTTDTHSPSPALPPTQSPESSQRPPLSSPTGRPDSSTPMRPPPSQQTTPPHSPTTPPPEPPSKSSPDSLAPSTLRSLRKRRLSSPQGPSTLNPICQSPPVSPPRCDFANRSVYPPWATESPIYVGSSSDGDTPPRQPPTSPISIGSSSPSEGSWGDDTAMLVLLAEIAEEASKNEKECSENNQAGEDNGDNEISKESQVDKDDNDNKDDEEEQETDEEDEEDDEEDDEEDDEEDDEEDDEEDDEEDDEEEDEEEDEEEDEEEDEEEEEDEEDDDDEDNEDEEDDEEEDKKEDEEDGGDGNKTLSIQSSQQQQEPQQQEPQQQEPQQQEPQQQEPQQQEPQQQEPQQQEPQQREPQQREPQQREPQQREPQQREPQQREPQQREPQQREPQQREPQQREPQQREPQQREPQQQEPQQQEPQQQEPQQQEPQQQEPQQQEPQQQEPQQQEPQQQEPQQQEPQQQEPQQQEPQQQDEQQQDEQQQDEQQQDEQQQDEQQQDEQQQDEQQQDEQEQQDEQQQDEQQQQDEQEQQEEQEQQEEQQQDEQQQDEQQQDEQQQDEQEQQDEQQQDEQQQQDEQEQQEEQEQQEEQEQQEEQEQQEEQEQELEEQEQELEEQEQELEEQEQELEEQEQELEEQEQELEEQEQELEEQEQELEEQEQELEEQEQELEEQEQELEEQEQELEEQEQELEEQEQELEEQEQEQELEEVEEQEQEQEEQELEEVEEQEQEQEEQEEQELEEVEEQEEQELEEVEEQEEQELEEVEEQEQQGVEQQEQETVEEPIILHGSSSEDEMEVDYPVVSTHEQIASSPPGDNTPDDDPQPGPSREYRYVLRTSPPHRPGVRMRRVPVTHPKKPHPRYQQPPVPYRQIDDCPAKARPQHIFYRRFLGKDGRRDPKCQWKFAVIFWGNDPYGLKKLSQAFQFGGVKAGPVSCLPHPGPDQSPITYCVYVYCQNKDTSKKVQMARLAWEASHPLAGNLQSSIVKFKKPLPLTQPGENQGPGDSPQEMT
Calb FLC – C. albicans growth inhibition with fluconazole, primary screen, CaCi-2 strain, Alamar Blue fluorescence; growth inhibition, % (no concentration beside the values); AID 1979, 2009; actives 0.57% (n = 300,000); C. albicans CaCi-2 (fluconazole-resistant clinical isolate) + fluconazole, 48 h;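 active = most replicates above 75%; inconclusive = exactly half above 75%; inactive = most below 75%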;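 also: all wells also contain fluconazole at 8 µg/ml as a sub-toxic cotreatment; 0% = median of DMSO wells and 100% = median of geldanamycin control wells; wells of about 8 µL received 7.5 nL stock; the first replicate is given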
RanGTP-Impb inh – inhibitors of RanGTP-importin-beta interaction, primary screen, biochemical, FRET, CFP-Ran, YFP-importin-beta, homogeneous; Ran GTPase (GTP-bound) - importin-beta complex; cell-free CFP-Ran/YFP-importin-beta FRET ratio; inhibition, % (concentration not given with the values); actives 1.1% (n = 300,000); AID 2216, 2009;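 active = most replicates above 15%; inconclusive = exactly half above 15%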;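 also: 0% = DMSO wells and 100% = Ran loaded with GDP instead of GTP; wells of about 40 µL received 100 nL stock; the first replicate is given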
Vif TR-FRET – inhibitors of Vif binding to APOBEC3G peptide, primary screen, biochemical, TR-FRET, GST-Vif 1-94, biotin-A3G peptide, dose response retest (AID 1117319); inhibition, %, or IC50 in µM where a hit was titrated; actives 0.57% (n = 260,000); TR-FRET GST-Vif / biotin-A3G peptide binding; higher % means a stronger effect; test concentration not given here; strong numbers were not always called active;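 active = above the screen mean plus three standard deviations and confirmed in dose response; inconclusive = results disagree or hit not tested in dose response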;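 also: Vif residues 1-94 fused to GST binding biotinylated APOBEC3G peptide 110-148; 0% = full assay without inhibitor and 100% = GST in place of GST-Vif; retest series ran down from 100 µM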
* hit, by the source's call; ? = inconclusive; nt = not tested or not shown; & = joins results of further samples. Rows were taken by chance; any-hit rate near 4.3%.

SMILES	Bfl-1 A1 inh	Beta apoptosis	AF4-AF9 inh	T cruzi inh	LANA-H2A inh	Calb FLC	RanGTP-Impb inh	Vif TR-FRET
C=CCn1c(NC(=O)c2ccc(Br)o2)c(S(=O)(=O)c2ccccc2)c2nc3ccccc3nc21	-0.1	-3.5	nt	-10.3	3.3	27.4	44.9*	24.3%
O=C(Nc1ccc2c(c1)OCO2)Oc1ccccc1	-5.6	8.3	nt	15.2	-5.9	-11.1	-0.8	6.0%
COc1ccc(C(C)=O)cc1COC(=O)CNC(=O)c1ccc(F)cc1	0.6	-7.8	nt	0.4	1.3	7.2	-2.0	24.1%
O=C(C(Cc1ccccc1)NS(=O)(=O)c1cccc2cccnc12)N1CCc2ccccc21 (stereo not given)	0.2	-0.7	-3.1	7.0	3.2	2.2	-1.7	-26.9%
COCCNC(=O)C(c1cccs1)N(C(=O)Cn1nnc2ccccc21)c1cccc(C(C)=O)c1 (stereo not given)	0.7	0.2	nt	-1.4	-1.1	-2.2	-4.3	-2.6%
O=C(CSc1nncs1)NC(=O)NCc1ccco1	-0.3	-0.8	-1.0	-11.6	1.9	-12.1	3.2	nt
COc1cc(CC(=O)Nc2ccc(S(=O)(=O)Nc3ncccn3)cc2)cc(OC)c1OC	0.4	0.1	nt	-11.1	7.1	3.5	2.0	2.3%
COc1ccccc1C(=O)NCCC(=O)N1CCN(S(=O)(=O)c2ccc(Cl)cc2)CC1	?	2.1	1.0	nt	3.8	nt	nt	0.0%
CC(C)(C)n1nnnc1C(c1cccs1)N(Cc1cccnc1)Cc1ccco1 (stereo not given)	0.6	nt	nt	47.6	-0.1	4.9	1.3	3.1%
Cc1ccc(Cl)cc1N1CCN(C(=O)CN2C(=O)c3cccc4cccc2c34)CC1	3.3	-5.4	nt	21.6	-1.4	-1.5	-2.8	-3.9%
COc1ccc(C(=O)NNS(=O)(=O)c2ccc(OC)cc2)cc1	0.1	1.2	-8.6	-5.2	-7.4	-8.9	1.6	15.8%
NC(=O)Nc1ccc(C(=O)OCC(=O)Nc2cccc(S(=O)(=O)NC3=NCCCCC3)c2)cc1	0.3	3.2	-2.7	-1.3	1.9	7.1	?	11.3%
CCOC(=O)C1=C(COC(=O)[C@H](C)NS(=O)(=O)c2ccc(NC(C)=O)cc2)NC(=O)NC1C (stereo not given in full)	1.2	-2.1	0.8	nt	4.7	nt	nt	4.5%
CCOc1ccc(C2=CSC3=NCCN23)cc1	-0.3	-0.9	3.5	21.9	0.1	-49.2	-1.8	nt
O=C(COC(=O)CCC(=O)c1cccs1)Nc1cccc(S(=O)(=O)N2CCOCC2)c1	0.0	1.7	nt	-9.7	9.1	4.1	-1.2	4.8%
Cc1cc(N2CCN(S(=O)(=O)c3ccc(Cl)cc3)CC2)c2ccccc2n1	-0.6	81.5*	nt	3.0	1.5	1.3	4.0	0.3%
O=C1Nc2ccccc2N=C(c2ccccc2)C1Br (stereo not given)	-0.5	-4.2	-1.0	-11.1	-2.8	-1.6	-1.9	nt
Cc1cc(-c2ccc(C)c(S(=O)(=O)N3CCN(C(=O)c4ccco4)CC3)c2)on1	-0.2	-3.6	1.4	-1.9	0.5	3.4	2.9	nt
CCc1nc(SCC(=O)NCc2ccccc2)c2c(=O)n(C)c(=O)n(C)c2n1	1.2	4.6	-6.1	-6.7	-12.4	-7.8	4.6	0.9%
COc1cc(C(C)=O)ccc1OCC(=O)OCC(=O)c1cc(C)n(CC2CCCO2)c1C (stereo not given)	0.5	-2.6	4.0	nt	-0.8	nt	nt	-3.2%

RanGTP-Impb inh, hit marks shown above
SMILES	Bfl-1 A1 inh	AF4-AF9 inh	LANA-H2A inh	RanGTP-Impb inh	Vif TR-FRET
C=CCn1c(NC(=O)c2ccc(Br)o2)c(S(=O)(=O)c2ccccc2)c2nc3ccccc3nc21	-0.1	nt	3.3	44.9*	24.3%

Structures from the list above that have two or more sulfur atoms (2):
SMILES	Bfl-1 A1 inh	Beta apoptosis	AF4-AF9 inh	T cruzi inh	LANA-H2A inh	Calb FLC	RanGTP-Impb inh	Vif TR-FRET
O=C(CSc1nncs1)NC(=O)NCc1ccco1	-0.3	-0.8	-1.0	-11.6	1.9	-12.1	3.2	nt
O=C(COC(=O)CCC(=O)c1cccs1)Nc1cccc(S(=O)(=O)N2CCOCC2)c1	0.0	1.7	nt	-9.7	9.1	4.1	-1.2	4.8%

(cont.)
SMILES	Bfl-1 A1 inh	Beta apoptosis	AF4-AF9 inh	T cruzi inh	LANA-H2A inh	Calb FLC	RanGTP-Impb inh	Vif TR-FRET
CC(=O)c1cnc2scnn2c1=O	0.2	nt	-1.4	-4.7	0.2	-3.5	1.0	-9.2%
COc1ccc(-c2c3c(nc4sc(C(=O)Nc5ccccc5)c(N)c24)CCC3)cc1	-0.6	4.4	nt	16.1	2.9	7.2	-2.4	0.1%
COc1ccc(-c2[nH]ncc2[C@@H]2C[C@H]3CN(Cc4ccccc4C)C(=O)[C@]34CCCN24)cc1	1.0	8.5	-3.9	26.8	-1.0	-12.3	-0.5	nt
CC1(C)CC(CCNS(=O)(=O)c2ccccc2)(c2ccccc2)CCO1 (stereo not given)	1.0	5.2	0.3	3.3	-3.1	-5.4	-1.5	1.9%
COc1cc(OC)cc(N(C(=O)c2ccco2)C(C(=O)NC2CCCC2)c2ccc(N(C)C)cc2)c1 (stereo not given)	0.2	-8.2	nt	17.5	0.9	nt	-2.9	-4.3%
O=C(C[n+]1ccccc1)N1CCCc2ccccc21	-0.4	-5.8	-1.3	-10.2	-1.2	-12.7	-0.2	?
S=C(Nc1ccc(Cl)c(Cl)c1)NC1CCN(Cc2ccccc2)CC1	-0.3	-2.7	nt	43.9	-0.6	-2.4	-0.9	nt
O=C(CCl)N1CCN(S(=O)(=O)c2ccc3c(c2)OCCCO3)CC1	-0.8	11.4	-4.2	nt	-4.8	nt	nt	0.6%
COC(=O)c1ccsc1NC(=O)C1=COCCO1	-0.2	nt	-4.2	1.6	-1.8	4.7	-5.1	4.4%
O=C(NC1CCCCCC1)C1CCC(=O)N(Cc2ccccc2F)C1 (stereo not given)	0.9	-3.0	-0.9	2.6	3.8	2.9	3.8	-3.2%
Cc1ccc(CCN2CC(C(=O)NCCN(C)C)CC2=O)cc1 (stereo not given)	0.1	nt	-1.1	14.7	1.9	-5.2	0.4	2.1%
CCOC(=O)c1csc(-n2nc(C)cc2C(F)(F)F)n1	1.6	1.2	-11.6	-13.4	5.1	-27.1	-0.8	nt
CC(C)NC(=O)c1cnc(N2CCN(c3ccccn3)CC2)c2ccccc12	-0.2	0.5	nt	18.0	4.7	0.2	-0.9	-8.6%
C=C1C(=O)O[C@@H]2[C@H]1[C@@H](OC(=O)/C(C)=C/C)C/C(C)=C\C(=O)/C=C(\C)[C@@H]2O	1.6	45.4	-12.3	-21.6	1.0	-4.3	-1.7	8.6%
Cc1ccc(S(=O)(=O)N(CC(=O)NCC2CCCO2)Cc2ccc(F)cc2)cc1 (stereo not given)	0.1	-5.3	-0.9	-12.9	0.9	2.7	0.8	nt
CCOc1ccc(S(=O)(=O)N2CCCC(C(=O)Nc3ccccc3)C2)cc1 (stereo not given)	-0.5	-2.1	0.9	-2.3	-0.8	-1.7	-3.1	nt
CC(=O)Nc1ccc(S(=O)(=O)NC2(C(F)(F)F)N=C(c3ccccc3)NC2=O)cc1 (stereo not given)	0.4	-13.0	4.1	-15.9	-0.4	10.7	0.9	9.5%
CN(CC(=O)Nc1ccc(F)c(F)c1F)C(=O)c1ccc2c(c1)NC(=O)CS2	0.7	8.4	-0.2	nt	7.0	nt	nt	nt
CCCCOc1ccc(-c2nc(SCC(N)=O)n[nH]2)cc1	1.0	-6.8	nt	0.6	3.1	-1.0	-1.8	-5.3%
CCN(C(=O)COc1ccc(C(C)=O)cc1)c1cccc2ccccc12	0.2	0.3	-2.3	nt	-2.9	nt	nt	nt
COC(=O)[C@H](Cc1ccccc1)NC(=O)Nc1ccc(S(N)(=O)=O)cc1	0.0	3.7	nt	-14.9	-7.6	-5.8	2.2	-1.5%
CCSC(=O)N(CC)CC(=O)Nc1c(CC)cccc1CC	0.5	0.3	nt	-6.9	12.2	3.3	-0.6	16.1%
CCC(=O)N1CCc2cc(S(=O)(=O)N3CCN(c4cc(Cl)ccc4C)CC3)ccc21	-0.5	-4.6	0.1	-13.3	-1.4	-3.3	3.6	nt
Cc1nnc(SCC(=O)Nc2ccccc2N2CCOCC2)s1	-0.1	-6.5	nt	-2.0	-0.4	3.6	-1.7	12.2%
Cc1[nH]c2ccccc2c1/C=N/NC(=S)NCc1ccccc1	0.3	0.6	3.8	-1.0	3.5	15.4	-1.1	-6.4%
Cc1ccc(/C=C/C(=O)N2CCN(S(=O)(=O)c3cccs3)CC2)o1	-0.3	-4.8	0.1	-3.9	0.0	-1.0	2.8	nt
Cc1nn(-c2ccccc2)c(Cl)c1/C=N/NC(=O)c1ccc(CNc2ccccc2)o1	-1.4	9.7	nt	4.6	4.3	38.1	1.8	0.4%
COC(=O)[C@H](Cc1ccccc1)[C@@H](C)OS(N)(=O)=O	0.7	nt	-6.7	3.0	5.8	-14.6	-1.2	nt
COc1ccc2[nH]c(=O)c(-c3nnn(-c4ccc(Cl)nc4)n3)cc2c1	1.0	-10.2	nt	-9.4	0.1	-6.3	2.2	nt
COc1ccc(C2CC(=O)Oc3c2c(=O)n(C)c2ccccc32)c(OC)c1OC (stereo not given)	-0.4	-6.0	-0.4	-0.7	-3.8	12.1	5.2	10.2%
CCOC(=O)CNC(=O)c1ccc(OCC(F)(F)F)cc1	-6.8	-4.1	-0.4	-5.6	5.9	9.7	-11.4	-3.0%
Cc1nc2ccc(NC(=O)C3=NN(C)C(=O)CC3)cc2s1	-5.6	1.1	-2.6	nt	2.9	nt	nt	nt
CC1CC(C)(C)OC(C[N+]2(C)CCCCC2)O1 (stereo not given)	0.4	2.6	nt	-4.6	0.6	0.6	-1.2	?
CC(=O)OC(COc1ccccc1)Cn1cnc2cc(C)c(C)cc21 (stereo not given)	-0.2	4.0	-1.4	-11.4	-0.3	16.9	0.5	-7.9%
CC(=O)Nc1ccc(C(=O)COC(=O)CCS(=O)(=O)c2ccccc2)cc1	-0.2	-4.9	-0.1	-10.7	1.9	0.1	9.2	0.0%
CCOc1ccc(OCC)c(NC(=O)CN2CCN(c3cccc(C)c3)C(C)C2)c1 (stereo not given)	-0.6	17.8	nt	44.3	-1.0	-3.2	1.9	-4.0%&1.7%

Screening results deposited in PubChem BioAssay by several laboratories.
